# Assay outcomes: PubChem, SRMLSC
# H5N1 CPE = antiviral screen in MDCK cells, H5N1 avian flu; 96,000 tested, 0.07% active; AID 740; cytopathic effect, luminescence, 72 h; stronger effect = higher value; no value below 0 was filed and about half of the inactive calls have no number; reference of the scale not given here; inhibition, % at 50 µM; in the data active = inhibition above about 25%
# An asterisk follows results filed as active; i = inactive. These rows are one share of the data. The share of hits here may be higher or lower than overall.
SMILES,H5N1 CPE
Cc1ccc(C(c2nnnn2CS(=O)(=O)c2ccc(C)cc2)N2CCC(C)CC2)cc1 (stereo unspecified),0.1
CS(=O)(=O)N1CCC(C(=O)O)CC1,i
CCc1ccc(NC(=O)c2cc(C)on2)cc1,0.1
COc1cccc(OCC(O)CN2CC(C)CC(C)C2)c1 (stereo unspecified),i
COc1ccc(O)c(-c2[nH]ncc2C(=O)c2ccccc2)c1,0.3
COC(=O)c1cccc(NC(=O)C(C)N2C(=O)c3ccccc3C2=O)c1 (stereo unspecified),i
O=C(CN1CCN(C2CCCCC2)CC1)Nc1ccccc1N1CCCCC1,i
COC(=O)c1ccc(C(=O)OC)c(NC(=S)N2CCCCC2)c1,0.1
CCCCc1ccc(C(=O)NC(C(=O)O)C(C)C)cc1 (stereo unspecified),i
Cc1ccc(N(C(C)C(=O)O)S(=O)(=O)c2c(C)[nH]c(=O)[nH]c2=O)cc1 (stereo unspecified),i
Cc1ccc(O)c(C2=NCCNC(C(F)(F)C(F)F)=C2)c1,0.3
Cc1cc(C)n(-c2nc3c(c(=O)[nH]c(=O)n3C)n2CCc2ccccc2)n1,1.0
Cc1cc2cc(CN(CCCN3CCOCC3)C(=O)NC3CCCCC3)c(=O)[nH]c2cc1C,i
CCCNC(=O)c1ccccc1NC(=O)C1COc2ccccc2O1 (stereo unspecified),0.6
O=C(Cc1c(C(=O)O)[nH]c2ccc(Cl)cc12)Nc1ccc2c(c1)OCCO2,0.3
O=C(NCc1ccccc1)NC1(C(=O)Nc2ccc3c(c2)OCCO3)CCCCC1,i
Cc1ccc(-c2noc(CSc3nnc(Cc4cccs4)n3-c3ccccc3)n2)cc1,3.5
Cc1sc2ncn(CC(=O)NCCCC(=O)N3CCN(c4ncccn4)CC3)c(=O)c2c1C,0.9
CCCCOc1ccc(CC2C(=O)N(C)C(=O)N(C)C2=O)cc1,i
Nc1cc(=O)[nH]c(SCc2cccc(Cl)c2)n1,1.4
Cc1ccccc1C1=NCC(=O)N(CC(=O)N2CCCCC2)c2sc(C)c(C)c21,1.1
Cc1ccc2c(c1)N(CCC(=O)NCC1COc3ccccc3O1)C(=O)CO2 (stereo unspecified),i
COc1ccc(-n2c(SCC(=O)Nc3cc(C)on3)nc3ccc(O)cc3c2=O)cc1OC,1.9
O=c1ccc(/C=C/c2ccccc2)nn1Cc1ccccc1Cl,i
CCOC(=O)c1sc(NC(=O)c2cccc(S(=O)(=O)N(CC)CC)c2)cc1C,i
CC(Sc1n[nH]c(N)n1)C(=O)C12CC3CC(CC(C3)C1)C2 (stereo unspecified),0.8
Cc1ccc(C2C(C#N)=C(N)N(c3ncn[nH]3)C3=C2C(=O)CC(C)(C)C3)cc1 (stereo unspecified),i
CCC(C)Sc1nc2c(c(=O)[nH]c(=O)n2C)n1CC(O)COc1cccc2ccccc12 (stereo unspecified),3.6
Cc1csc(N2CCc3ccccc32)n1,0.7
CCC1SC(=NC(=O)c2ccc(Cl)c(Cl)c2)NC1=O (stereo unspecified),i
Nc1nc(SCC(=O)NCCCN2CCOCC2)nc2sc3c(c12)CCC3,0.3
COc1ccc(CCN(C)CCC(=O)Nc2cc(C)ccc2C)cc1OC,i
O=S(=O)(N/N=C/c1cn(Cc2ccccc2)c2ccccc12)c1ccccc1,1.2
COc1ccc2oc(=O)c(C(=O)Oc3ccc(NC(C)=O)cc3)cc2c1,0.4
Cc1ccc(-c2nc(N)n(S(C)(=O)=O)n2)cc1,2.1
CCOC(=O)C1CCN(C(=O)c2ccc3c(c2)OCO3)CC1,i
CC1CCCC(C)N1C(=O)CN1C(=O)C(C)(C)Oc2ccc(C(=O)NC3CCCCC3)cc21 (stereo unspecified),i
Cc1ccc(-c2nc3ccccc3s2)cc1NC(=O)c1ccc2c(c1)OCO2,i
COc1ccc(CC(=O)Nc2oc(-c3ccccc3)c(-c3ccccc3)c2C#N)cc1OC,i
CC(C)c1cc(C(=O)Nc2ccc3c(c2)OCO3)no1,i
O=C(CN1C(=O)c2ccccc2C1=O)OCC(=O)N1CCc2ccccc2C1,i
O=c1[nH]c2cc3c(cc2cc1CN(Cc1ccc2c(c1)OCO2)Cc1nnnn1CC1CCCO1)OCO3 (stereo unspecified),i
Cc1cc(C)n2nc(SCC(=O)N/N=C/c3cccc(Br)c3)nc2n1,4.0
Cc1ccc(S(=O)(=O)Cc2sc3ccccc3[n+]2C)cc1,i
Cc1cccc(N2CCN(S(=O)(=O)c3ccc(S(=O)(=O)N4CCCC4)cc3)CC2)c1C,i
CCOC(=O)CSc1nnc(-c2ccc(S(=O)(=O)N3CCC(C)CC3)cc2)o1,1.6
Nc1ccccc1N1CCOCC1,1.6
CCOC(=O)Cc1csc(NC(=O)c2cc3c(s2)CCCC3)n1,i

# Part of the list above, with each value named:
Compound: O=c1[nH]c2cc3c(cc2cc1CN(Cc1ccc2c(c1)OCO2)Cc1nnnn1CC1CCCO1)OCO3 (stereo unspecified)
  H5N1 CPE = i
Compound: Cc1cc(C)n2nc(SCC(=O)N/N=C/c3cccc(Br)c3)nc2n1
  H5N1 CPE = 4.0
Compound: Cc1ccc(S(=O)(=O)Cc2sc3ccccc3[n+]2C)cc1
  H5N1 CPE = i

# Going on with the list.
SMILES,H5N1 CPE
CC(=O)c1ccc(N2CCN(C(=O)CCS(=O)(=O)c3ccc(C)cc3)CC2)cc1,1.1
Cc1nn(Cc2ccc(Cl)cc2Cl)c(C)c1NC(=O)c1nc2n(n1)C(C(F)F)CC(C)N2 (stereo unspecified),i
COc1ccc(N2C(=O)C3CCCN3C2c2ccc(C)cc2)cc1Cl (stereo unspecified),i
COc1ccc(/C=N/NC(=O)C2c3ccccc3Oc3ccccc32)c(OC)c1,0.1
O=C(N1CCOCC1)N1CCN(c2nc(-c3ccccc3)cs2)CC1,i
COc1ccc(NC(=O)CSc2nnc(C3CC3)n2N)cc1,i
O=Cc1ccc(OCC(=O)NC(=O)NC2CCCCC2)cc1,1.3
Cc1ccc(C2(C)NC(=O)N(CC(=O)NC(=O)NCCC(C)C)C2=O)cc1 (stereo unspecified),i
O=C(OCCOc1ccccc1Cl)c1ccc(-n2cnnn2)cc1,0.6
COC(=O)C1=CN(CCCN2CCCC2=O)C=C(C(=O)OC)C1c1cccs1,0.1
O=C(c1ccc(C#Cc2ccccc2)o1)N1CCN(c2ccccn2)CC1,i
c1ccc2c(c1)C(=NCC1CCCO1)NC2=NCC1CCCO1 (stereo unspecified),1.8
Cc1ccc(CNS(=O)(=O)NCc2ccccc2)cc1,0.9
Cc1cccc(-n2ncc3c(NCCCO)ncnc32)c1,i
COc1ccc(C(=O)CSc2nnc(CNc3nc(-c4ccccc4)cs3)n2C)cc1,i
Cc1ccc(-n2cnc3cc(NCc4cccs4)ccc32)cc1,i
COc1ccc(Cl)cc1Nc1nc(C)cc(=O)[nH]1,i
Cc1ccc2nc3n(c(=O)c2c1)CCC3,1.1
COC(=O)Nc1ccc(S(=O)(=O)N2CCN(c3ccc(F)cc3)CC2)cc1,1.1
Cc1nnc(SCC(=O)NC(=O)NCc2ccco2)n1Cc1ccccc1,0.2
O=C(O)c1cc(S(=O)(=O)Nc2ccc3c(c2)OCCO3)c(Cl)cc1Cl,0.3
O=C(c1nc2nc(-c3ccccc3)cc(C(F)(F)F)n2n1)N1CCCCC1,i
CCOC(=O)c1nn(-c2ccccc2)c(C(=O)OCC)c1N,i
O=C(c1ccc(Cl)cc1)N1CCN(c2cc(=O)[nH]nc2-c2ccccc2)CC1,2.3
Cc1cccc(N2C(=O)CC(N3CCN(Cc4ccc5c(c4)OCO5)CC3)C2=O)c1 (stereo unspecified),i
COC(CNC(=O)c1cc(C(=O)c2c(-c3c(Cl)cccc3Cl)noc2C)c[nH]1)OC,0.4
CNc1c([N+](=O)[O-])cnn1-c1ccc(Cl)cc1,1.6
Cc1ccc(S(=O)(=O)CCC(=O)OCC(=O)Nc2ncc(Cl)cc2Cl)cc1,i
COc1ccc(N2CCN(Cc3ccc(Br)s3)CC2)cc1,i
Cc1cc(C)c(C)c(S(=O)(=O)N2C(=S)NC(=O)C2C(C)C)c1C (stereo unspecified),i
COC(=O)c1[nH]c2ccc(C)cc2c1NC(=O)CCN1CCN(C2CCCCC2)CC1,0.6
O=c1[nH]c2ccc(S(=O)(=O)N3CCN(Cc4ccccc4)CC3)cc2[nH]c1=O,0.3
O=C1C(C23CC4CC(CC(C4)C2)C3)C(=O)N(c2ccccc2)N1c1ccccc1,0.2
Cc1ccc(NC(=O)/C(CN(C)C)=N\O)cc1,0.2
Cc1cccc(NC2(C(F)(F)F)N=C3SCCN3C2=O)n1 (stereo unspecified),0.2
CCCCCCn1c(N2CCN(c3ccccc3)CC2)nc2c1c(=O)[nH]c(=O)n2C,i

# By substructure, the compounds so far containing bromine (2)
SMILES,H5N1 CPE
Cc1cc(C)n2nc(SCC(=O)N/N=C/c3cccc(Br)c3)nc2n1,4.0
COc1ccc(N2CCN(Cc3ccc(Br)s3)CC2)cc1,i

# (further entries)
SMILES,H5N1 CPE
COc1ccc(CSc2nnc(C)n2N)cc1,i
CCS(=O)(=O)N1CCC(C(=O)Nc2cccc(C(C)=O)c2)CC1,i
COC(=O)C1C(C(C)C)N(c2ccccc2)OC1(C)O (stereo unspecified),i
CC1=C(C)CC(C(=O)NNC(=O)c2ccccc2O)C(C(=O)O)C1 (stereo unspecified),i
CCOC(=O)c1oc2ccc(CNCCO)c(Cl)c2c1C,i
CCn1c(SCC(=O)N2CCc3ccccc3C2)nc2c1c(=O)n(C)c(=O)n2C,0.7
CCN(CC)S(=O)(=O)c1ccc(C2CNC(=O)C2)cc1 (stereo unspecified),0.6
Cc1nn(CCO)c(C)c1Oc1ccccc1O,i
CCOC(=O)c1[nH]c2ccccc2c1CCCN1C(=O)c2ccccc2C1=O,0.7
Cc1ccc(C2N(c3ccccc3)C(=S)N3CCCN23)cc1 (stereo unspecified),0.9
Cc1oc(C2CC2)cc1C(=O)O,i
COc1ccc(NC(=O)CSc2nnc(-c3ccccc3C)n2C)cc1,i
CC(C)Cn1c(SCC(=O)NC(=O)Nc2ccc3c(c2)OCCO3)nc2ccccc2c1=O,i
CCc1sc(NC(=O)COC)nc1-c1ccccc1,0.1
CC(C)(C)c1nnc(NC(=O)C2CCN(c3ncccn3)CC2)s1,i
CC(=O)Nc1cc2c(nc1C)nc(C)n2Cc1ccc(Br)cc1,0.5
CCNC(=O)NC(=O)CSc1cccc(C(F)(F)F)c1,i
COC(=O)c1ccc(C(=O)OC)c(NC(=O)CN2CCN(c3ccccc3OC)CC2)c1,1.0
C=CCN(C(=O)CNC(=O)c1ccco1)C(C(=O)NC1CCCCC1)c1ccccc1 (stereo unspecified),0.4
Cc1cc(C(=O)NCc2ccco2)no1,i
COc1cccc(/C=N/NC(=O)c2ccc(-c3ccccc3)cc2)c1O,i
Cc1ccc(OCC(=O)Nc2sc3c(c2C#N)CCC3)cc1,i
COc1cccc(CC(=O)Nc2nccs2)c1,0.6
CC(C)c1ccc(N2C(=O)CC(Sc3nc4ccccc4o3)C2=O)cc1 (stereo unspecified),1.0

# By substructure: the entries above containing a furan ring, fused or not
SMILES,H5N1 CPE
COc1ccc(CC(=O)Nc2oc(-c3ccccc3)c(-c3ccccc3)c2C#N)cc1OC,i
O=C(c1ccc(C#Cc2ccccc2)o1)N1CCN(c2ccccn2)CC1,i
Cc1nnc(SCC(=O)NC(=O)NCc2ccco2)n1Cc1ccccc1,0.2
CCOC(=O)c1oc2ccc(CNCCO)c(Cl)c2c1C,i
Cc1oc(C2CC2)cc1C(=O)O,i
C=CCN(C(=O)CNC(=O)c1ccco1)C(C(=O)NC1CCCCC1)c1ccccc1 (stereo unspecified),0.4
Cc1cc(C(=O)NCc2ccco2)no1,i

# (continued)
SMILES,H5N1 CPE
Cc1cc(NC(=O)Cc2cccs2)no1,0.8
O=C1CCC(=O)N1CCOP1(=O)COc2ccccc2OC1,i
O=C(C1CCN(S(=O)(=O)c2ccccc2)CC1)N(CCc1ccccc1)Cc1ccco1,i
COCCn1nnnc1C(c1ccccn1)N1CCN(c2cc(C)ccc2C)CC1 (stereo unspecified),0.2
CCOc1ccc(OCC)c(NC(=O)C2CCCN(S(=O)(=O)c3cnc[nH]3)C2)c1 (stereo unspecified),2.2
Cc1nn(-c2ccccc2)c(C)c1/C=N/NC(=O)c1cc(-c2ccccc2)n[nH]1,i
Cc1c(Cl)cccc1NC(=O)CCN1CCCCCC1,i
O=C(CC(c1ccccc1)c1ccccc1)Nc1ccc2c(c1)OCCO2,i
Cc1c(NC(=O)c2ccc3c(c2)C(=O)N(CC2CCCO2)C3=O)cccc1C(=O)O (stereo unspecified),i
O=C(c1ccco1)N1CCN(c2ncnc3c2oc2ccccc23)CC1,0.3
O=C(NC1CC1)c1cc(=O)c2ccccc2o1,0.4
CCOC(=O)N1CCC(Nc2c(Nc3ccc(F)cc3)c(=O)c2=O)CC1,i

# Pulled by structure from the entries so far, seven records:
SMILES,H5N1 CPE
CCOC(=O)N1CCC(Nc2c(Nc3ccc(F)cc3)c(=O)c2=O)CC1,i
O=C(c1ccco1)N1CCN(c2ncnc3c2oc2ccccc23)CC1,0.3
O=C(CC(c1ccccc1)c1ccccc1)Nc1ccc2c(c1)OCCO2,i
O=C1CCC(=O)N1CCOP1(=O)COc2ccccc2OC1,i
Cc1c(Cl)cccc1NC(=O)CCN1CCCCCC1,i
O=C(C1CCN(S(=O)(=O)c2ccccc2)CC1)N(CCc1ccccc1)Cc1ccco1,i
CCOc1ccc(OCC)c(NC(=O)C2CCCN(S(=O)(=O)c3cnc[nH]3)C2)c1 (stereo unspecified),2.2

# (more compounds)
SMILES,H5N1 CPE
O=S(=O)(c1cccs1)n1cccn1,i
O=C(OCc1c(Cl)cccc1Cl)c1ccccn1,i
COC(=O)c1cc(C)sc1NC(=O)C1CC=CCC1C(=O)O (stereo unspecified),i
COc1ccc(CC(=O)Nc2cc(Cl)ccc2O)cc1,0.5
Nc1nc(Cl)cc(Sc2ccc3ccccc3c2)n1,i
O=C1CC(c2ccccc2)CN1Cc1ccccc1 (stereo unspecified),2.4
CCOC(=O)N1CCN(Cc2nc3c(c(=O)[nH]c(=O)n3C)n2Cc2cc(C)ccc2C)CC1,0.6
COc1cccc(CNC(=O)C2CCCN(S(=O)(=O)c3c(C)[nH]c(=O)[nH]c3=O)C2)c1 (stereo unspecified),i
Cc1cccc(-n2c(N)cc(=O)nc2SCC(=O)Nc2nnc(C)s2)c1,i
Cc1cc(C)cc(NC(=S)NC(=O)CCN2C(=O)c3ccccc3C2=O)c1,i
O=C(N1CCOCC1)N1CCN(S(=O)(=O)c2ccccc2)C1,0.7
